TRPV1 potentiator: HTS Assay for Compounds that Act as Potentiators of the Vanilloid Receptor 1. 320,000 tested, 0.02% active. TRPV1-expressing cells, Fluo-8 calcium influx, capsaicin EC20 potentiation; host cell line not named in the record; control for the full effect not named in the record. Transient receptor potential cation channel subfamily V member 1 (Homo sapiens), Q8NER1. AID 540277, 2011. potentiation, % at 8.33 µM; active means potentiation above 80%; inconclusive means 30% to 80%; inactive means below 30%; further: 0% is about no effect
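Fluo-8 calcium influx in TRPV1-expressing cells, kinetic read (ex 480/em 520 nm). Compound added and read 3 min for agonist activity, followed by capsaicin at EC20 final and 2 min further read for enhancement.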
Six1-Eya2 blk: qHTS Assay for Inhibitors of the Six1/Eya2 Interaction; AlphaScreen GST-Six1/His-Eya2 binding, biochemical; active compounds read low; control for the full effect not named in the record; activity change, % (test concentration not listed); 360,000 tested, 0.56% active; AID 651725, 2012; in the data active = activity change below about -65%; inconclusive = about -30% to -65%; inactive = above about -30%; further: on the % scale 0 is the no-effect control and ±100 the full control effect
Target sequence (O00167 whole entry, looked up): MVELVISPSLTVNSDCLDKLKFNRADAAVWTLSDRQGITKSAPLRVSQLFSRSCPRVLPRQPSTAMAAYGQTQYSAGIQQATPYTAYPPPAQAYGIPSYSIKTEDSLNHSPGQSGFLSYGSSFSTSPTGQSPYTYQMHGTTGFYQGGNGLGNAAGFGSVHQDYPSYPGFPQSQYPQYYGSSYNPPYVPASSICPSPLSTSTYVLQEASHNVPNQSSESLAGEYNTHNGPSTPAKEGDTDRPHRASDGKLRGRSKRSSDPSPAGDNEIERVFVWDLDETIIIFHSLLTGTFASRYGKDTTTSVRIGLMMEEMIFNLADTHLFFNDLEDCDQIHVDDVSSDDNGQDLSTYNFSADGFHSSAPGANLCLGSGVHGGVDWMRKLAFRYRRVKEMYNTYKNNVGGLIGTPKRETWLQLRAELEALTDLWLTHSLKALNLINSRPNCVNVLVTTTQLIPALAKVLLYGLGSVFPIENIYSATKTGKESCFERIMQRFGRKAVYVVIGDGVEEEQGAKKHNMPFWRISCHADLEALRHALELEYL
Target sequence (Q15475 whole entry, looked up): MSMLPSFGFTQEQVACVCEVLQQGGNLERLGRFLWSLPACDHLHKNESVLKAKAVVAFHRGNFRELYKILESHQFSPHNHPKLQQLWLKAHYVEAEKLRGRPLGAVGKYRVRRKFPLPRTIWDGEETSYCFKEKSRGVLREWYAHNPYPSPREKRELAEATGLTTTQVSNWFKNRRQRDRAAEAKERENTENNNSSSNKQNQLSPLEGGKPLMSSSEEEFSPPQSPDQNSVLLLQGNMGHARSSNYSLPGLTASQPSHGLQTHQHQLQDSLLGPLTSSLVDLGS
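Six1/Eya2 binding was read as AlphaScreen signal after compounds were pinned into GST-Six1 plus His-tagged Eya2 (5X stock 250/500 nM) in pH 8.0 Tris/NaCl/TCEP buffer, beads added, then incubated 1 h, 37 C, dark.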
TRPML1 ag: qHTS for Agonists of the Human Mucolipin Transient Receptor Potential 1 (TRPML1) | Mucolipin-1 (Homo sapiens), Q9GZU1 | TRPML1-expressing cells, Ca2+ dye fluorescence, FDSS; host cell line not named in the record; reference of the full effect not given here | activation, % (no concentration beside the values) | 410,000 tested, 0.12% active; in the data active = activation above about 50%; inconclusive = about 30% to 50%; inactive = below about 30%; further: 0% is about no effect; the text of the record puts the active cut at 80%
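TRPML1-DL cells, Tet-induced overnight (~16 h, 37 degrees C), loaded 45-90 min at room temperature with Ca8 no-wash calcium dye plus quencher. FDSS fluorescence: 10 s baseline, compound pin-transfer, 110 s agonist read, then EC80 54-4 (4uM final) and 110 s antagonist read.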
CtBP-E1A inh: qHTS Assay for Inhibitors of the CtBP/E1A Interaction; CtBP / adenovirus E1A interaction (AlphaScreen); AlphaScreen GST-E1A/His-CtBP binding, 1536-well; active compounds read low; control for the full effect not named in the record; activity change, % (concentration not given with the values); 340,000 tested, 0.49% active; AID 651724, 2012; in the data active means activity change below about -65%; inconclusive means about -30% to -65%; inactive means above about -30%; further: on the % scale 0 is the no-effect control and ±100 the full control effect
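Homogeneous bead-based format: GST-tagged E1A captured on glutathione donor beads, His-tagged CtBP on nickel acceptor beads; compounds precede bead addition by 2 h at 37 °C.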
D2 PAM: Beta-Arrestin HTS for Positive Allosteric Modulators of the Human D2 Dopamine Receptor: Potentiators | AID 624464, 2012 | 360,000 tested, 0.23% active | D(2) dopamine receptor (Homo sapiens), P14416 | potentiation, % (no concentration beside the values) | DiscoveRx D2 beta-arrestin cells, luminescence, 90 min; 100% = 57 uM dopamine signal; active = potentiation of 50% or more; inconclusive = 30% to 50%; inactive = 30% or less;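 further: compound concentration not given in the record; tested on top of an EC20 dose of dopamine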
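PathHunter D2 cells, attached overnight at 37 deg C, received compound in DMSO plus dopamine at EC20 (50 nM final) for 90 min at 37 deg C. Beta-arrestin recruitment was read as luminescence after 1 h with detection reagent at ambient temperature.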
TRPML1 blocker: qHTS for Inhibitors of the Human Mucolipin Transient Receptor Potential 1 (TRPML1); TRPML1-inducible cells, Ca2+ dye fluorescence, FDSS; active compounds read low; inhibition of EC80 agonist-evoked calcium signal; 390,000 tested, 0.02% active; Mucolipin-1 (Homo sapiens), Q9GZU1; activity change, negative = inhibition, % (concentration not given with the values); in the data active means activity change below about -50%; inconclusive means about -30% to -50%; inactive means above about -30%;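 further: stimulus is agonist 54-4 at its EC80 concentration; on the % scale 0 is the no-effect control and ±100 the full control effect; the text of the record puts the active cut at -80%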
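Tet-induced TRPML1-DL cells loaded with Ca8 no-wash calcium dye were read kinetically on FDSS. Compound addition was followed by EC80 agonist 54-4 (4 uM final); inhibition was read over 110 s.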
* marks the source's active call; other numbers are inactive results; ? = inconclusive; . = no result given.

Results follow in this order: D2 PAM	TRPML1 ag	CtBP-E1A inh	Six1-Eya2 blk	TRPV1 potentiator	TRPML1 blocker
1: COc1ccccc1CNC(=O)CNC(=O)N1CC(=O)Nc2ccccc21
  -9	-0.4	0	-1	19	0
2: COc1ccc(CCNC(=O)c2ccc(CS(=O)(=O)Cc3ccc(C)cc3)o2)cc1OC
  0	-1.0	3	0	.	-10
3: CC(C)C(C(=O)NC1CCCC1)N(CC1CCCO1)C(=O)CNS(=O)(=O)c1ccc(F)cc1 (configuration not stated)
  -4	-0.6	1	1	-4	15
4: CCOC(=O)CSc1nnc(Cc2ccc(OC)cc2)n1-c1ccccc1
  -5	-0.5	-2	0	-1	3
5: O=C(Nc1cccc2c1CCCC2)c1ccc(Cl)c([N+](=O)[O-])c1
  -1	6.3	-7	3	-12	20
6: Cn1c(=O)c2[nH]c(NN=Cc3ccc(Br)cc3)nc2n(C)c1=O
  7	-0.2	-3	2	.	-21
7: Cc1ccc(S(=O)(=O)N(C)C)cc1NC(=O)COC(=O)COc1ccc2c(C)cc(=O)oc2c1
  -32	-0.5	2	-2	.	4
8: COc1ccccc1N1CCN(C(=O)c2ccncc2)CC1
  -4	-0.5	1	2	5	-3
9: O=P(OCC1CC1)(c1ccccc1)c1ccccc1
  -4	0.9	13	13	0	-3
10: COc1cccc(C(C)(O)c2nc(-c3ccc(F)cc3OC)cs2)c1 (configuration not stated)
  -7	-0.7	9	1	.	.
11: CCOc1cc(N2CCOCC2)c(OCC)cc1NC(=O)COC(=O)CCn1c(C)csc1=O
  -2	0.3	-19	-3	-12	-9
12: CC1CCCCC1NC(=O)c1cccc(N2C(=O)C3C4C=CC(C4)C3C2=O)c1 (configuration not stated)
  -9	-1.0	9	2	2	8
13: COC(=O)[C@@]1(Cc2ccc(F)cc2)[C@H]2c3cc(C(=O)N(C)C)n(C[C@H](O)CO)c3C[C@H]2CN1C(=O)c1ccccc1
  -3	0.4	.	6	13	6
14: O=C(c1cccs1)N1N=C(c2ccccc2)CC1c1ccccc1 (configuration not stated)
  -6	1.6	10	0	-24	-3
15: Cc1ccccc1S(=O)(=O)/N=C(/c1ccccc1)N(C)C
  -3	0.3	.	10	2	3
16: CCCCOc1ccccc1NC(=O)Cn1c(-c2nonc2N)nc2ccccc21
  1	-1.0	8	8	-21	25
17: COc1ccccc1OCCCCN1CCN(c2ccccc2OC)CC1
  -36	-1.2	-5	-4	-3	16
18: Brc1ccc(-c2cn3cccnc3n2)cc1
  15	-1.1	1	0	-17	4
19: COc1ccc(N2CCN(C(=O)c3ccc(N(C)S(=O)(=O)c4ccc(C)cc4)cc3)CC2)cc1
  -5	1.4	8	-30	-1	36
20: CCc1nnc(NS(=O)(=O)c2ccc(NC(=O)c3ccccc3OC)cc2)s1
  -9	0.4	.	-1	17	-6
21: Nc1nc2nonc2nc1N
  -2	1.7	-20	5	.	2
22: COc1ccc(N=Cc2c[nH][nH]c2=O)cc1
  -9	-0.9	0	4	9	-3
23: CCN(CCCNC(=O)c1ccc2c(c1)NC(=O)CN2C)c1cccc(C)c1
  -5	0.0	.	-7	-13	12
24: CN1CCN(c2nc(-c3ccccn3)nc3ccccc23)CC1
  -9	-0.8	?	?	3	-7
25: COc1cc(NS(=O)(=O)c2ccc(NC(=S)NC(=O)c3ccc(F)c(F)c3)cc2)nc(OC)n1
  -17	0.0	-5	-5	-4	5
26: COCCNC(=S)N1C2CCC1CC(NC(=O)NC13CC4CC(CC(C4)C1)C3)C2 (configuration not stated)
  -1	4.9	-3	-1	9	-3
27: CCOc1ccccc1Nc1ccc(C(=O)O)cc1NC(C)=O
  15	0.6	1	1	4	5
28: Cc1cc(C)cc(C(=O)Oc2coc(CSc3nnc(NC(=O)C4CC4)s3)cc2=O)c1
  -22	0.2	-1	-1	0	-3
29: Cc1ccc2nsnc2c1NC(=O)COc1ccccc1
  1	-0.2	6	-2	-8	8
30: CC1(C)Oc2ccc(C(=O)NC3CCCC3)cc2N(CC(=O)N2CCOCC2)C1=O
  0	-0.1	3	12	0	-1
31: COc1ccc(N2CC(C(=O)NC3CCSC3=O)CC2=O)cc1 (configuration not stated)
  -2	0.6	6	2	3	8
32: COc1cccc(OC)c1OCC(=O)Nc1ccc(S(=O)(=O)N2CCCC2)cc1
  -2	0.3	.	-1	.	-7
33: Cc1c(NC(=O)CN2C(=O)NC(C)(c3ccccc3Cl)C2=O)c(=O)n(-c2ccccc2)n1C (configuration not stated)
  -4	-0.5	0	-1	-3	14
34: Cc1cccc(-n2ncc3c(NCCCN4CCCC4=O)ncnc32)c1
  2	0.0	-9	-11	20	12
35: CCN(CC)C(=O)COc1ccc(/C=C(\C#N)S(=O)(=O)c2ccccc2)cc1OC
  -1	-0.1	9	5	-2	-10
36: COC(C(=O)NC1CCCCCCC1)c1ccccc1 (configuration not stated)
  1	0.4	9	4	-4	-1
37: CCOC(=O)c1oc2cccc(O)c2c1CN(Cc1ccccc1)C(C)=O
  1	0.2	0	-3	2	13
38: CCC(=O)c1ccc(OCC(O)CN2CCN(c3ccccn3)CC2)cc1 (configuration not stated)
  26	0.0	-11	1	-7	0
39: COc1ccc(N2CC(C(=O)N3CCOCC3)CC2=O)cc1 (configuration not stated)
  3	0.1	5	3	-4	-9
40: CCN(CCNS(=O)(=O)c1ccc2c(c1)oc(=O)n2C)c1ccccc1
  2	0.0	1	-4	-33	-4
41: Cn1nc(C(C)(C)C)cc1N1C(=O)CCC1(C)C(=O)NC1CCCCC1 (configuration not stated)
  0	0.3	5	7	.	.
42: Cc1cc[n+](CC(=O)c2ccc3c(c2)OCCO3)cc1
  -4	-0.3	1	8	2	0
43: COc1ccc(C(=O)NC(=S)N2CC(C)OC(C)C2)cc1 (configuration not stated)
  -9	-0.2	-1	1	2	-19
44: CCCSc1cc(=O)n(-c2ccccc2)nc1C(=O)O
  9	1.6	3	5	7	9
45: CSCC[C@H](NC(=O)c1cc([N+](=O)[O-])ccc1Cl)c1nc2ccccc2[nH]1
  -3	0.6	-9	-5	-1	-9

An excerpt of these results, screen by screen:
35	CCN(CC)C(=O)COc1ccc(/C=C(\C#N)S(=O)(=O)c2ccccc2)cc1OC
36	COC(C(=O)NC1CCCCCCC1)c1ccccc1 (configuration not stated)
37	CCOC(=O)c1oc2cccc(O)c2c1CN(Cc1ccccc1)C(C)=O
38	CCC(=O)c1ccc(OCC(O)CN2CCN(c3ccccn3)CC2)cc1 (configuration not stated)
39	COc1ccc(N2CC(C(=O)N3CCOCC3)CC2=O)cc1 (configuration not stated)
40	CCN(CCNS(=O)(=O)c1ccc2c(c1)oc(=O)n2C)c1ccccc1
41	Cn1nc(C(C)(C)C)cc1N1C(=O)CCC1(C)C(=O)NC1CCCCC1 (configuration not stated)
42	Cc1cc[n+](CC(=O)c2ccc3c(c2)OCCO3)cc1
43	COc1ccc(C(=O)NC(=S)N2CC(C)OC(C)C2)cc1 (configuration not stated)
44	CCCSc1cc(=O)n(-c2ccccc2)nc1C(=O)O

Compound	35	36	37	38	39	40	41	42	43	44
D2 PAM	-1	1	1	26	3	2	0	-4	-9	9
TRPML1 ag	-0.1	0.4	0.2	0.0	0.1	0.0	0.3	-0.3	-0.2	1.6
CtBP-E1A inh	9	9	0	-11	5	1	5	1	-1	3
Six1-Eya2 blk	5	4	-3	1	3	-4	7	8	1	5
TRPV1 potentiator	-2	-4	2	-7	-4	-33	.	2	2	7
TRPML1 blocker	-10	-1	13	0	-9	-4	.	0	-19	9

45	CSCC[C@H](NC(=O)c1cc([N+](=O)[O-])ccc1Cl)c1nc2ccccc2[nH]1

Compound	45
D2 PAM	-3
TRPML1 ag	0.6
CtBP-E1A inh	-9
Six1-Eya2 blk	-5
TRPV1 potentiator	-1
TRPML1 blocker	-9

The listing continues.
Results follow in this order: D2 PAM	TRPML1 ag	CtBP-E1A inh	Six1-Eya2 blk	TRPV1 potentiator	TRPML1 blocker
46: COc1cccc(NC(=O)c2ccccc2-c2nc(-c3ccc(Cl)cc3)no2)c1
  -5	2.8	2	13	3	19
47: COc1ccc(-n2nc(C(=O)NCC(=O)NCCC3=CCCCC3)c3ccccc3c2=O)c(OC)c1
  1	0.7	-1	2	6	17
48: Cc1cc(OC(=O)c2c(C)cc(OC(=O)c3c(C)cc(O)cc3O)cc2O)cc(O)c1C(=O)O
  0	0.8	-3	-5	.	47
49: CCOC(=O)COc1cccc2c(=O)n(CC(N)=O)ccc12
  -11	.	-3	3	-12	.
50: Cc1ccc(Cl)cc1N(CC(=O)NCc1ccccc1)S(C)(=O)=O
  -4	-0.2	4	0	1	-15
51: Cc1ccc2oc(=O)n(CC(=O)OCCC(C)C)c2c1
  -1	2.4	21	15	-15	7
52: CCc1[nH]nc(C(=O)N2CCCC(C(=O)c3cccc(OC(C)C)c3)C2)c1C (configuration not stated)
  -4	1.6	2	25	-7	13
53: COC(=O)c1c(-c2cc(C)ccc2C)csc1NC(=O)C1CC=CCC1C(=O)O (configuration not stated)
  -3	-1.5	4	-6	8	-8
54: O=C(Nc1ccc(S(=O)(=O)Nc2nccs2)cc1)/C(=C/c1ccccc1Cl)NC(=O)c1ccccc1
  -1	0.4	-1	-16	-2	-6
55: O=C(NCc1ccco1)c1ccc2c(c1)C(=O)N(Cc1ccccc1)C2=O
  -5	1.0	-5	-9	-16	15
56: Cc1ccc2nc(NC(=O)Cn3nc(C)c([N+](=O)[O-])c3C)sc2c1
  1	0.8	-6	4	6	-8
57: O=C(Nc1ccccc1[N+](=O)[O-])c1cc2ccccc2nc1Cl
  -4	-0.2	1	0	-6	4

High-throughput results from PubChem BioAssay.
